Mtb hypoxia rep: inhibitors of hypoxia-regulated fluorescent reporter in Mycobacterium tuberculosis; fluorescence inhibition, % (no concentration beside the values); AID 1159583; actives 0.1% (n = 300,000); M. tuberculosis hypoxia-regulated fluorescent reporter, fluorescence;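 active = 35 to 45% if threefold the growth effect, above 45% if 1.5-fold the growth effect; inactive = the rest, general growth blockers included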;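 also: wells of about 50 µL received 100 nL stock; 0% = vehicle wells and 100% = reference inhibitor wells; whole bacteria with a GFP reporter of the hypoxia response; strong numbers were not always called active; many hits fall short of the cut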
BJeLR viability: BJeLR cell viability loss | actives 0.17% (n = 300,000) | BJeLR (HRASV12) viability, CellTiter-Glo ATP luminescence, 48 h; reference of the scale not given here | inhibition, % (test concentration not listed);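 active = replicate mean above 50%; inconclusive = above 50% but judged a plate artefact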;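 also: 50 nL library stock added to about 25 µL; numbers are from one replicate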
RN4220 kill: S. aureus RN4220 growth inhibition; OD600, 16 h; inhibition, % (concentration not given with the values); actives 0.33% (n = 330,000);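 active = z-score of -3 or lower and OD600 up to 0.18 on both plates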;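 also: plate controls were untreated cells for no effect and reference antibiotic for full effect; stock transfer was 100 nL into about 80 µL; one replicate is shown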
PrP UTR inh: suppresses PrP 5' UTR mRNA reporter expression; actives 0.35% (n = 340,000); cell-based PrP 5' UTR mRNA reporter, plate reader; AID 488862; inhibition, % (concentration not given with the values);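 active = every replicate at 50% or more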;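 also: 0 = median of the neutral control wells; tested in H4 reporter cells; numbers are from one replicate; inactives centre near -14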
Bead autofluor: counter-screen for toxin protease inhibitors: compound fluorescence. fluorescence intensity (concentration not given with the values). compound autofluorescence counterscreen, microsphere flow cytometry; hits give high values. actives 3.1% (n = 360,000);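 active = at least 3 SD above the mean of all compounds, about 16000 in these data; inconclusive = too few beads counted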;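 also: 100 nL of 1 mM stock went into each well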
ugtP null kill: kills S. aureus RN4220 lacking UgtP; S. aureus RN4220 ugtP deletion, OD600 growth, 16 h; some inactives read as strong as hits; growth inhibition, % (concentration not given with the values); actives 0.54% (n = 330,000);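 active = z-score under -3 and OD600 up to 0.15 on both plates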;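 also: plate controls were untreated wells for no effect and antibiotic for full effect; wells of about 80 µL received 100 nL stock; the first replicate is given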
Mtb hypoxia rep growth: further read-out of Mtb hypoxia rep, marked with its call; growth inhibition, %; measured here: M. tuberculosis growth (absorbance);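 0% = vehicle and 100% = reference antibiotic; read after six days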
* = called active by the depositor; ? = inconclusive; · = no result given.

Molecule	Mtb hypoxia rep growth	Bead autofluor	RN4220 kill	BJeLR viability	Mtb hypoxia rep	ugtP null kill	PrP UTR inh
COC(=O)c1ccccc1NC(=O)NCc1cccnc1	14	6095	7.5	4	3	-12	-13
COCCNC(=O)CN(c1ccc(C)cc1)S(=O)(=O)c1ccccc1	5	10451	4.2	-8	0	-5	-26
c1ccc(Oc2cccc(CN3CCOCC3)c2)cc1	12	11201	2.3	3	2	5	-43
Cc1ccc(NC(=O)CCC(=O)N/N=C/c2cc([N+](=O)[O-])ccc2O)cc1	·	2485	·	-2	·	·	-11
CN(Cc1ccccc1)C(=O)CN1CCCC1=O	-12	3100	0.2	-7	-10	-4	6
Cc1c[n+]([O-])ccc1Oc1ccc([N+](=O)[O-])cc1	13	2881	3.7	14	17	1	-6
CCC(=O)Nc1ccc(C(=O)COC(=O)CCN2C(=O)C3CC=CCC3C2=O)cc1 (stereo unspecified)	-6	?	1.1	-6	-9	0	-8
Oc1ccccc1Cn1c(-c2ccccc2O)nc2ccccc21	-4	9647	-9.5	8	2	-12	-27
N#Cc1cccc(-n2nnnc2-c2ccc3c(c2)OCO3)c1	·	3349	2.4	1	·	6	3
CC(=O)N1CCN(C(=O)c2ccc(NS(=O)(=O)c3cc(C)ccc3C)cc2)CC1	2	·	2.7	12	6	2	-7
O=C(Nc1ccc(Br)cc1)N1C[C@H]2C[C@@H](C1)c1cccc(=O)n1C2	·	5821	6.3	-5	·	10	-7
Cc1sc(NC(=O)c2cccc(N3C(=O)CCC3=O)c2)nc1-c1ccccc1	3	?	-1.7	10	7	11	-6
O=C1N=C(c2ccccc2)S/C1=C\c1cccs1	-5	10226	5.2	2	4	6	-10
Cc1cc(NC(=O)CSc2nncn2-c2ccccc2)no1	16	3638	4.7	6	8	4	-16
CCOc1ccccc1OCC(=O)Nc1cc(C)on1	8	8887	-1.2	·	0	6	-26
CC(=O)Oc1ccc(CC(C(=O)O)N2C(=O)c3ccccc3C2=O)cc1 (stereo unspecified)	1	3826	2.2	-1	2	3	-8
COc1ccc2c(CC(=O)NCc3cccs3)coc2c1	·	?	3.5	7	·	1	28
COC(=O)c1ccc(CSc2nncn2N)cc1	-4	4023	3.8	-5	-1	11	-42
O=C(COC(=O)/C=C/c1ccccc1)NC(=O)NC1CCCCC1	3	3597	4.6	·	5	3	-15
CN(C)C(CNC(=O)c1cc(Br)ccc1Cl)c1ccco1 (stereo unspecified)	-1	3892	3.2	-14	3	-2	-13
CCn1c(=NC(=O)c2ccc(S(=O)(=O)N3CCOCC3)cc2)sc2cccc(OC)c21	·	2977	-4.6	-7	·	11	-10
c1ccc(-c2noc(CN3CCN(c4cnccn4)CC3)n2)cc1	1	3768	0.5	8	0	-1	-20
c1coc(CSSCc2ccco2)c1	11	3805	8.0	·	9	6	-16
O=C(CNC(=O)c1ccc(Br)cc1)N/N=C/c1ccc[nH]1	·	2547	·	-14	·	·	-2
COc1ccc(C(=O)NCCc2cn3ccccc3n2)cc1	0	5531	3.5	-7	9	5	-34
C/C(CCc1ccc2c(c1)OCO2)=N\N=C(/N)SC1CC(=O)N(c2ccc(Cl)cc2)C1=O (stereo unspecified)	·	10125	·	-1	·	·	-31
CC(Oc1ccccc1)C(=O)N=Nc1c(O)[nH]c2ccc([N+](=O)[O-])cc12 (stereo unspecified)	2	2150	6.1	-3	7	-1	-18
O=C1c2ccccc2C(=O)N1CCc1ccccc1	-6	3729	3.0	-1	-2	5	-65
CCc1ccc(CN(C)CCc2ccccn2)cc1	6	16273*	-2.3	-7	4	-6	-15
Cc1ccc(O)c(C2=Nc3ccccc3N=C(c3ccc([N+](=O)[O-])cc3)C2)c1	2	2084	-3.8	0	2	-5	0
CCOc1ccc(C(CCc2ccccc2)NC(=O)c2ccccc2OC)cc1OCC (stereo unspecified)	-4	8486	1.9	-5	9	-4	·
O=Cc1cn(CCOc2ccccc2F)c2ccccc12	-2	3895	-1.4	-2	0	1	-18
COc1ccc(OC)c(N2C(=O)CC(=O)NC2=O)c1	-7	4462	0.7	-4	1	-2	2
NC(=O)CSc1nc2ccccc2n1Cc1ccccc1	7	2179	0.7	4	6	12	-19
Cc1cccc(-c2nsc(SCC(=O)c3ccc(Cl)cc3)n2)c1	12	2018	2.5	14	6	26	-19
Brc1ccc2[nH]ncc2c1	4	7911	4.7	-1	4	9	-27
NC(Cc1ccc([N+](=O)[O-])cc1)=NOC(=O)c1ccccc1F	1	·	-1.8	·	1	2	·
CCN1CCN(Cc2ccc(NC(=O)c3cc(NC(=O)c4nccnc4N)cc(OC)c3)cc2C(F)(F)F)CC1	8	4447	2.1	-4	-2	-24	0
COc1ccc(CCNC(=O)c2cnc(C)cn2)cc1	32	5663	-0.7	0	25	1	-3
CCOC(=O)N1CCN(C(=O)CCc2ccc(S(=O)(=O)NCCc3ccccc3)cc2)CC1	8	22791*	5.1	3	7	7	-8
C=CCN(c1ccccc1)S(=O)(=O)c1ccc(Cl)c(C(=O)OCC(=O)NCCCN2CCCC2=O)c1	2	3321	7.7	-6	16	9	-83
COc1cccc(N2CCN(C(=O)c3cc4cc(Cl)ccc4[nH]3)CC2)c1	-4	3797	-3.9	-6	2	-22	-31
Cc1cnc(C)c(N(C)NC(=S)Nc2ccccc2)n1	8	1934	4.0	-2	1	11	-5
O=C(/C=C/c1cccc(Br)c1)NCc1ccncc1	7	4455	-0.5	3	9	5	-10
O=c1c2ccccc2[nH]c(=S)n1C1CCCCC1	·	2674	5.1	-1	·	0	-24
Cc1ccc(C(=O)N/C(=C/c2ccco2)C(=O)NCCc2c[nH]c3ccccc23)cc1	12	2119	1.3	6	16	3	-15
COC(CNC(=O)c1ccc(CS(=O)(=O)c2ccc(Br)cc2)o1)OC	8	2682	6.4	2	5	10	2
COc1cc2ccccc2cc1C(=O)NNC(=O)c1ccccc1O	·	6711	·	17	·	·	-1
CCOc1cccc(C(=O)Nc2ccc3[nH]ncc3c2)c1	1	3448	2.7	15	8	5	-67
C=CCSc1nc(-c2ccccc2)c2cc(Cl)ccc2n1	·	2696	7.7	-3	·	72	-9
COc1ccccc1CNC(=O)c1ccccc1C(=O)NC(CC(C)C)C(=O)NCc1ccccc1OC (stereo unspecified)	0	5378	2.5	3	11	-4	-50
O=c1cc(CN2CCOCC2)c2cc(Cl)c(O)cc2o1	3	5414	-1.7	1	9	-1	-17
CCN1CCN(Cc2nnnn2C(C)(C)C)CC1	·	·	0.0	1	·	-12	·
OCCCNc1nc(-c2ccccc2)c2cc(Cl)ccc2n1	7	·	4.0	1	6	5	·
CCC(=O)NCCc1nc2ccccc2n1CC	7	4339	3.8	-8	5	9	18
O=C(CSc1nc(=O)n(CCCN2CCOCC2)c2c1CCC2)Nc1cccc(F)c1	12	5371	-2.2	3	0	4	-12
CC(NC(=O)CCN1C(=O)c2ccccc2C1=O)c1ccccc1 (stereo unspecified)	13	3746	1.5	1	3	3	-13
O=C(CN1CCN(Cc2ccccc2)C1=O)NCc1cccs1	9	4052	1.1	1	11	4	-9
CC(=O)c1cn(CC(=O)NCC2CCCO2)c2ccccc12 (stereo unspecified)	·	2653	-0.3	8	·	5	-35
Cc1cc(C)cc(N(C(=O)c2csnn2)C(C(=O)NC2CCCCC2)c2cccnc2)c1 (stereo unspecified)	-3	3494	3.4	-10	-12	0	5

(listing goes on)
Molecule	Mtb hypoxia rep growth	Bead autofluor	RN4220 kill	BJeLR viability	Mtb hypoxia rep	ugtP null kill	PrP UTR inh
CCOc1ccc(N2CC(C(=O)Nc3cccnc3)CC2=O)cc1 (stereo unspecified)	0	?	2.5	10	3	1	-29
COc1cc(/C=N/NC(=S)N/N=C/c2cc(OC)c(OC)c(OC)c2)cc(OC)c1OC	·	2363	·	2	·	·	-36
CCOc1ccc(C(=O)N2CCN(c3cccc(Cl)c3)CC2)cc1	·	4282	·	-10	·	·	-16
COc1cccc(Cn2cnc3c(NS(=O)(=O)c4cccc(Cl)c4Cl)c(C)c(C)cc32)c1	8	4389	-6.1	-2	9	-16	-14
Cn1c(=O)c2c(nc(NCC(O)CO)n2CCc2ccccc2)n(C)c1=O (stereo unspecified)	·	4158	-3.5	-1	·	-2	-23
CCCn1c(N)c(C(=O)CSc2n[nH]c(-c3ccccc3F)n2)c(=O)n(C)c1=O	-7	6607	-2.3	·	-1	-5	11
CSc1nnc(CSc2cc(C)nc(N(C)C)n2)o1	10	8987	7.2	3	8	3	-32
COc1ccc(CCNC(=O)C2(C)CCC(=O)N2CCC(C)C)cc1OC (stereo unspecified)	7	5791	-1.6	4	-5	-2	10
NC(=O)c1ccc(NC(=O)CN2CCN(C(=O)c3ccco3)CC2)cc1	-4	5307	-0.7	3	-1	4	-14
CC(C(=O)Nc1ccccc1-c1ccccc1)N1CCOCC1 (stereo unspecified)	-5	5488	5.0	3	11	12	-17
NS(=O)(=O)c1ccc(NC(=O)COc2ncnc3sccc23)cc1	0	4764	4.7	7	12	7	-23
CC(=NNC(=O)CC#N)c1cc2ccccc2oc1=O	5	·	7.7	·	1	2	·
CCCC(=O)Nc1cccc(NC(=S)NC(=O)C(C)Oc2ccc(Cl)cc2Cl)c1 (stereo unspecified)	-11	2031	-5.3	-21	8	-24	-10
COc1ccc(CCNC(=O)CSc2n[nH]c(C)c2[N+](=O)[O-])cc1OC	-6	6114	2.1	-3	4	6	6
Cc1cccc(NC(=S)NCCN(C2CCCCC2)C2CCCC2)c1	-3	4109	2.4	13	1	13	·
CCCC(=O)Nc1ccc(NC(=O)c2ccccc2)nc1	-7	?	-5.0	7	-1	-10	7
Nc1nnc(C=Cc2ccccc2)s1	0	·	5.8	·	1	3	·
CCOC(=O)NC1(C(F)(F)F)C(=O)NC(C)=C1C#N (stereo unspecified)	·	4815	5.5	0	·	1	-45
Cc1cc(C)n(CC(=O)NNC(=O)COc2ccc(Br)cc2F)n1	3	?	5.7	·	-1	5	-11

Structures shown so far that have a cyano group, in the order listed:
Molecule	Mtb hypoxia rep growth	Bead autofluor	RN4220 kill	BJeLR viability	Mtb hypoxia rep	ugtP null kill	PrP UTR inh
N#Cc1cccc(-n2nnnc2-c2ccc3c(c2)OCO3)c1	·	3349	2.4	1	·	6	3
CC(=NNC(=O)CC#N)c1cc2ccccc2oc1=O	5	·	7.7	·	1	2	·
CCOC(=O)NC1(C(F)(F)F)C(=O)NC(C)=C1C#N (stereo unspecified)	·	4815	5.5	0	·	1	-45
